# Mtb hypoxia rep: reduces hypoxia-regulated biosensor signal in M. tuberculosis | M. tuberculosis hypoxia-regulated fluorescent reporter, fluorescence | fluorescence inhibition, % (test concentration not listed) | actives 0.1% (n = 300,000) | AID 1159583;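 active = 35 to 45% if threefold the growth effect, above 45% if 1.5-fold the growth effect; inactive = the rest, general growth blockers included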;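 also: wells of about 50 µL received 100 nL stock; 0% = vehicle wells and 100% = reference inhibitor wells; whole bacteria with a GFP reporter of the hypoxia response; strong numbers were not always called active; many hits fall short of the cut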
# BJeLR lethal: BJeLR cell viability loss | actives 0.17% (n = 300,000) | BJeLR (HRASV12) viability, CellTiter-Glo ATP luminescence, 48 h; reference of the scale not given here | inhibition, % (concentration not given with the values);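 active = replicate mean above 50%; inconclusive = above 50% but judged a plate artefact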;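 also: 50 nL library stock added to about 25 µL; numbers are from one replicate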
# PrP UTR inh: inhibition of PrP 5' UTR reporter expression. cell-based PrP 5' UTR mRNA reporter, plate reader. inhibition, % (no concentration beside the values). actives 0.35% (n = 340,000);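 active = every replicate at 50% or more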;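 also: 0 = median of the neutral control wells; tested in H4 reporter cells; numbers are from one replicate; inactives centre near -14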
# Sa ugtP lethal: kills S. aureus RN4220 lacking UgtP. S. aureus RN4220 ugtP deletion, OD600 growth, 16 h; some inactives read as strong as hits. growth inhibition, % (concentration not given with the values). actives 0.54% (n = 330,000). AID 1259309;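 active = z-score under -3 and OD600 up to 0.15 on both plates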;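 also: plate controls were untreated wells for no effect and antibiotic for full effect; wells of about 80 µL received 100 nL stock; the first replicate is given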
# Sa RN4220 lethal: kills Staphylococcus aureus RN4220; S. aureus RN4220 growth, OD600, 16 h; inhibition, % (concentration not given with the values); actives 0.33% (n = 330,000); AID 1259311;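 active = z-score of -3 or lower and OD600 up to 0.18 on both plates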;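 also: plate controls were untreated cells for no effect and reference antibiotic for full effect; stock transfer was 100 nL into about 80 µL; one replicate is shown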
# Autofluor counter: counter-screen for toxin protease inhibitors: compound fluorescence; compound autofluorescence counterscreen, microsphere flow cytometry; active compounds read high; fluorescence intensity (no concentration beside the values); actives 3.1% (n = 360,000); AID 624483;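 active = at least 3 SD above the mean of all compounds, about 16000 in these data; inconclusive = too few beads counted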;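 also: 100 nL of 1 mM stock went into each well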
# Mtb hypoxia rep growth: further read-out of Mtb hypoxia rep, marked with its call; growth inhibition, %; measured here: M. tuberculosis growth (absorbance);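 0% = vehicle and 100% = reference antibiotic; read after six days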
# Active calls of the source: *; ? = inconclusive; nt = no result given.
# The first four entries, ahead of the listing:
mol,Mtb hypoxia rep,Mtb hypoxia rep growth,BJeLR lethal,PrP UTR inh,Sa ugtP lethal,Sa RN4220 lethal,Autofluor counter
CCOC(=O)Cc1csc(NC(=O)CN(C)S(=O)(=O)c2ccc3c(c2)CCC(=O)N3)n1,7,8,nt,-7,7,1.4,6249
O=C(/C=C/c1ccc(Cl)c([N+](=O)[O-])c1)c1ccc(O)cc1,18,0,3,-34,12,13,3576
Cc1cc2c(NCCc3ccccc3)ncnc2s1,-2,11,20,-33,-17,1.2,4183
COCCN(C(=O)COC(=O)CCSc1ccc(F)cc1)c1c(N)n(Cc2ccccc2)c(=O)[nH]c1=O,16,8,-12,-14,2,3.8,5965

# This part in full, from the start:
mol,Mtb hypoxia rep,Mtb hypoxia rep growth,BJeLR lethal,PrP UTR inh,Sa ugtP lethal,Sa RN4220 lethal,Autofluor counter
CCOC(=O)Cc1csc(NC(=O)CN(C)S(=O)(=O)c2ccc3c(c2)CCC(=O)N3)n1,7,8,nt,-7,7,1.4,6249
O=C(/C=C/c1ccc(Cl)c([N+](=O)[O-])c1)c1ccc(O)cc1,18,0,3,-34,12,13,3576
Cc1cc2c(NCCc3ccccc3)ncnc2s1,-2,11,20,-33,-17,1.2,4183
COCCN(C(=O)COC(=O)CCSc1ccc(F)cc1)c1c(N)n(Cc2ccccc2)c(=O)[nH]c1=O,16,8,-12,-14,2,3.8,5965
Cc1ccccc1N1CCN(C2CCCN(C(=O)c3ccnn3C)C2)CC1 (stereo not given),3,4,0,-12,-6,3.3,5592
Cc1cc(C(=O)OCC(=O)N2CC(C)CC(C)C2)c(C)o1 (stereo not given),nt,nt,10,1,-9,-0.9,4048
CCc1ccc(OCC(=O)NN=C(C)c2ccccc2OC(F)F)cc1,-4,-3,nt,nt,-2,6.1,nt
COc1cccc(NC(=O)c2ccncc2)c1,nt,nt,-4,-19,3,4.8,4796
CC[C@]12C(=O)N(C)CC(C3C(=O)N(C)C(=O)C31)N2C(=O)c1ccccc1 (stereo not given in full),2,3,nt,nt,-3,5.7,nt
COc1cc(-c2cn(S(=O)(=O)c3cccc4nsnc34)nc2N)cc(OC)c1OC,17,7,-13,-11,7,6.9,7695
CC(=O)N1c2ccc(S(=O)(=O)N3CCCC(C(=O)Nc4ccc(C)cc4C)C3)cc2CC1C (stereo not given),8,-1,10,-21,4,-0.8,5225
O=C(CSc1cccc[n+]1[O-])Nc1cccc(S(=O)(=O)NC2=NCCCCC2)c1,10,9,8,-22,6,6.7,4343
Cc1cccc(N2CCN(C(=O)c3ccnn3C)CC2)c1C,8,3,12,-12,4,1.2,5901
O=C(O)CC(NC(=O)C(F)(F)F)c1ccc2c(c1)OCO2 (stereo not given),6,10,3,-17,-1,3.4,3304
Cc1nc(C)c(C(=O)NN=Cc2ccco2)s1,1,3,nt,nt,4,5.0,nt
CC(C(=O)Nc1ncc([N+](=O)[O-])s1)N1C(=O)c2ccccc2S1(=O)=O (stereo not given),5,0,1,-6,0,6.6,5950
COc1ccc(NC2CCCN(C(=O)c3cccc(N(C)C)c3)C2)cc1 (stereo not given),10,-8,-2,-23,3,-0.9,nt
Cc1ccc(N=Cc2cc(C)n(C3CCCC3)c2C)cc1,4,5,-5,-39,-4,7.6,12213
CCC(C)[C@H](NC(=O)[C@H](Cc1ccccc1)n1c(=O)[nH]c2ccccc2c1=O)C(=O)NCC1CCC(C(=O)O)CC1 (stereo not given in full),nt,nt,-1,-29,9,-0.8,5121
NS(=O)(=O)c1ccc(N/N=C/c2ccccc2Br)cc1,nt,nt,7,-22,nt,nt,3449
CCc1ccc(NC(=O)COc2cccc(-n3cnnn3)c2)cc1,6,0,0,-8,8,7.8,3303
CC(=O)c1ccc(NC(=O)C(Cc2ccccc2)n2cccc2)cc1 (stereo not given),-5,8,-1,-30,2,0.5,4848
COc1cccc(OCc2cc(C(=O)N(C)Cc3nc4ccccc4[nH]3)no2)c1,6,2,7,-72,2,0.8,5522
CC(C)(C)NC(=O)CSc1nc(N)c(-c2ccccc2)c(=O)[nH]1,4,3,-3,-19,-6,4.1,3409
O=C(Nc1ccc(F)cc1)c1cc(S(=O)(=O)N2CCCCC2)cs1,3,5,3,-20,41,-2.8,5490
O=C(CN1C(=O)c2ccccc2C1=O)NCc1ccccn1,nt,nt,11,0,10,3.0,3453
CC(C)CC(=O)Nc1ccc(-c2cn3cccnc3n2)cc1,-8,3,6,-27,-5,-3.3,2972
O=C(CSc1nnc(SCc2ccccc2Cl)s1)N/N=C/c1c[nH]c2ccccc12,nt,nt,10,-15,nt,nt,2172
COCCCNC(=O)/C(C#N)=c1\s/c(=C\c2ccccc2OC(F)F)c(=O)n1CCCOC,nt,nt,-15,-14,nt,nt,10334
O=S(=O)(Nc1cccc(-c2nnco2)c1)c1ccc(F)cc1F,1,7,-2,nt,11,2.9,4489
O=C(Cn1nnc(-c2ccc(Cl)cc2)n1)NC1CCN(Cc2ccccc2)CC1,2,14,2,8,-2,0.9,3678
CCOC(=O)c1cnc2c(C)cccc2c1Nc1cccc(C(=O)O)c1,10,6,-13,-4,3,0.4,4347
Cc1ccc(CN2CCSc3ccc(C(=O)NCCCN4CCOCC4)cc32)cc1,16,10,11,-6,1,3.4,5624
COCCOC(=O)C1=C(N)OC2=C(C(=O)CCC2)C1c1cccnc1 (stereo not given),5,9,nt,-10,3,1.3,4058
CN(C)CCCN(C(=O)c1ccc(S(=O)(=O)N2CCCCCC2)cc1)c1nc2c(F)cccc2s1,7,-2,-2,-2,16,4.7,5217
COC(=O)C1NN=C(C(=O)c2ccc(Br)cc2)C1c1cccc(Br)c1 (stereo not given),7,-3,-15,-9,53,2.7,2465

# 6 consecutive entries from above, for reference:
mol,Mtb hypoxia rep,Mtb hypoxia rep growth,BJeLR lethal,PrP UTR inh,Sa ugtP lethal,Sa RN4220 lethal,Autofluor counter
O=C(Cn1nnc(-c2ccc(Cl)cc2)n1)NC1CCN(Cc2ccccc2)CC1,2,14,2,8,-2,0.9,3678
CCOC(=O)c1cnc2c(C)cccc2c1Nc1cccc(C(=O)O)c1,10,6,-13,-4,3,0.4,4347
Cc1ccc(CN2CCSc3ccc(C(=O)NCCCN4CCOCC4)cc32)cc1,16,10,11,-6,1,3.4,5624
COCCOC(=O)C1=C(N)OC2=C(C(=O)CCC2)C1c1cccnc1 (stereo not given),5,9,nt,-10,3,1.3,4058
CN(C)CCCN(C(=O)c1ccc(S(=O)(=O)N2CCCCCC2)cc1)c1nc2c(F)cccc2s1,7,-2,-2,-2,16,4.7,5217
COC(=O)C1NN=C(C(=O)c2ccc(Br)cc2)C1c1cccc(Br)c1 (stereo not given),7,-3,-15,-9,53,2.7,2465

# Next section
mol,Mtb hypoxia rep,Mtb hypoxia rep growth,BJeLR lethal,PrP UTR inh,Sa ugtP lethal,Sa RN4220 lethal,Autofluor counter
OCCCc1nc2ccccc2[nH]1,9,10,1,-18,11,6.7,4514
Cc1ccc(S(=O)(=O)NCc2n[nH]c(=S)n2C)cc1,7,2,0,-8,9,0.3,4318
O=C(CSCC(=O)N1CCN(c2ccccc2)CC1)Nc1nc(-c2ccc(Cl)s2)cs1,6,10,-5,-27,4,-4.2,5884
COc1cccc2cc(C(=O)N(C)C3CCN(C)CC3)c(=O)oc12,13,4,8,-16,4,6.9,3343
COc1ccc(/C=N/n2c(SC)nnc(C(C)(C)C)c2=O)cc1,nt,nt,-5,-107,nt,nt,2496
O=C(NN=C1CCCCCCC1)C(=O)NC1CCCCC1,nt,nt,-2,-24,4,-2.4,4736
Cc1nc2ccccn2c1C(=O)N/N=C/c1cc(C)n(-c2ccc(Cl)cc2)c1C,nt,nt,11,-22,nt,nt,9240
O=C1CCCN1CCC1CCN(C(=S)Nc2ccc(F)cc2)CC1,-4,-4,4,6,4,2.4,?
Cc1cc(Cl)ccc1OC(C)C(=O)NN=C1CCCCCC1 (stereo not given),0,-8,1,-8,-4,0.9,4896
CCc1ccc2nc(N(CCN(C)C)C(=O)c3ccc4ccccc4c3)sc2c1,6,14,-8,-29,-6,-2.0,5266
Cc1ccc(NC(=O)CSCC(=O)O)c(C)c1,1,3,-16,-8,-1,1.2,4416
CN(Cc1ccccc1)C(=O)CCn1c(=O)c2cccn2c2cccnc21,4,4,2,-6,15,2.0,4487
CCn1c(SCC(=O)c2ccccc2)nc2c(c1=O)SC(C)C2 (stereo not given),1,1,-4,-20,4,1.5,9574
NC(=O)CNC(=O)C1CC2(CC(c3ccccc3)=NO2)CN1C(=O)c1ccc(Br)cc1 (stereo not given),7,7,nt,nt,3,2.4,nt
COCCN1C(=O)c2ccccc2C(C(=O)N2CCN(c3ccccn3)CC2)C1c1ccc(F)cc1 (stereo not given),-1,-2,4,3,2,1.1,4235
CC1CCN(c2ccccc2NC(=O)c2ccc(C#N)cc2F)CC1,1,4,6,-37,2,1.0,3367
CC(=O)Nc1nc(C)nc(-c2ccccc2)c1C(C)=O,nt,nt,0,-28,-1,0.9,3831
Cc1nn(Cc2ccccc2)c(Cl)c1C=NNC(=O)CNc1cccc(C(F)(F)F)c1,4,-3,nt,nt,-12,-5.6,nt
CCOC(=O)c1sc(NC(=O)CSc2nccc(C)n2)c(C#N)c1C,nt,nt,-6,-31,-1,-4.1,4019
COC(=O)c1cc(CN2CCN(c3ccccc3C)CC2)ccc1O,3,3,-5,-24,22,0.6,11052
CCCCC(=O)Nc1ccc(C(=O)NNC(=O)c2ccco2)cc1,11,6,4,-13,5,2.1,5007
COc1ccccc1N1CCN(C(=O)c2cnn3cccnc23)CC1,nt,nt,3,nt,7,-0.2,nt
CCOc1ccc(N2CC(C(=O)Nc3cccc(S(=O)(=O)N4CCCC4)c3)CC2=O)cc1 (stereo not given),4,3,1,-11,0,-2.0,5111
COc1cc(NC(=O)CCN2CCN(CCO)CC2)cc(OC)c1,4,2,-24,-11,11,2.7,4141

# The closing 2 records of the section before open the next one.
mol,Mtb hypoxia rep,Mtb hypoxia rep growth,BJeLR lethal,PrP UTR inh,Sa ugtP lethal,Sa RN4220 lethal,Autofluor counter
CCOc1ccc(N2CC(C(=O)Nc3cccc(S(=O)(=O)N4CCCC4)c3)CC2=O)cc1 (stereo not given),4,3,1,-11,0,-2.0,5111
COc1cc(NC(=O)CCN2CCN(CCO)CC2)cc(OC)c1,4,2,-24,-11,11,2.7,4141
Cc1cc(NC(=O)Cc2cccs2)nn1CC(=O)NCc1ccco1,nt,nt,2,-28,7,4.1,4179
CCCCCN(C(=O)CCC(=O)OCc1cc(C(C)=O)ccc1OC)c1c(N)n(CCCC)c(=O)[nH]c1=O,9,0,-5,-23,6,4.5,4022
COc1cc(C)c(S(=O)(=O)NC2CC(C)(C)NC(C)(C)C2)cc1C,nt,nt,7,0,5,8.4,4690
COc1ccc(C)cc1S(=O)(=O)N(C)CC(N)=O,nt,nt,8,-11,6,1.4,4327
CSc1cccc(NC(=O)c2ccc(Cl)nc2)c1,7,15,-5,-18,-8,-24,?
O=C(Cn1cnc2c(NCc3ccccc3)ncnc21)NCCCc1ccccc1,-6,-3,nt,-20,-2,-4.9,4023
CCNC(=O)O/N=C(\C)c1sc(-c2ccc(Cl)cc2)nc1C,nt,nt,-1,-70,nt,nt,4660
CCC(C)[C@H](NC(=O)OC(C)(C)C)C(=O)N/N=C/c1ccc2cc(OC)ccc2n1 (stereo not given in full),nt,nt,-7,-24,nt,nt,2137
Cc1ccc2nc(C)cc(N/N=C/c3cccc(O)c3)c2c1,nt,nt,9,-20,nt,nt,3757
Cc1ccc(C)c(C(=O)CN2C(=O)c3ccccc3C2=O)c1,3,-2,-4,-16,-1,4.1,5764

# Bioassay records deposited in PubChem by several laboratories.
